Bioassay records: PubChem, Johns Hopkins Ion Channel Center
KCNQ2 enhance = potentiators of rat KCNQ2 potassium channel. CHO-K1 KCNQ2, FluxOR thallium flux fluorescence; active compounds read high. 310,000 compounds, 0.54% hits. B-score at 10 µM. Potassium voltage-gated channel subfamily KQT member 2 (Rattus norvegicus), O88943. AID 2239, 2010;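 active = fluorescence ratio B-score at least 3 SD of library B-scores, with initial fluorescence B-score within 3 SD, cut at about 5.3 in these data; same plate scores as AID 2156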;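 note: B-score of peak minus minimum over baseline fluorescence ratio after K+ and Tl+ stimulus; positive B-score means potentiation of KCNQ2 with more thallium influx and brighter signal; only the inactives scoring about 0 or higher are listed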
Target sequence (O88943 whole entry, looked up): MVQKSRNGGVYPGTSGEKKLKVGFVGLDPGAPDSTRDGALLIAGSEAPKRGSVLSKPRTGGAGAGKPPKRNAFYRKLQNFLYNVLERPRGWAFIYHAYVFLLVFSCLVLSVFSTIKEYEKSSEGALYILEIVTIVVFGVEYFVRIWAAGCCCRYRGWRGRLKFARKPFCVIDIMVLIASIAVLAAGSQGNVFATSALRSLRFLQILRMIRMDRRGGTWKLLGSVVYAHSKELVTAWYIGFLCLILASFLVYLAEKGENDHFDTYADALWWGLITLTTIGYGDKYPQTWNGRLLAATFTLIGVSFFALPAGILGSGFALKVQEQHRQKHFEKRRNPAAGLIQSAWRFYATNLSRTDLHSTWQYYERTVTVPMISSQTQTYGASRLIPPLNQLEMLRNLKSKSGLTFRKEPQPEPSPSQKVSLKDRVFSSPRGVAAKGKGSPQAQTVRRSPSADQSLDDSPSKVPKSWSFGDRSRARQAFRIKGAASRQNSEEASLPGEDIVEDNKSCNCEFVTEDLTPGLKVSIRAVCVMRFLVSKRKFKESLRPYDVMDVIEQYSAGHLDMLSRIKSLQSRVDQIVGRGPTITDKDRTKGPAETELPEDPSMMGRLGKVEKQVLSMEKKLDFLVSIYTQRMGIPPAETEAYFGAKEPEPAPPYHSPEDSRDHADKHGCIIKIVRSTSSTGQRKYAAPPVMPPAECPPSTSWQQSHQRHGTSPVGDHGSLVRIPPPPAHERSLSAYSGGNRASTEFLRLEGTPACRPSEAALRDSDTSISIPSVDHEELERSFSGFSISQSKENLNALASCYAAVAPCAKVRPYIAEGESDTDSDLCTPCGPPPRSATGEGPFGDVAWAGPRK
KCNQ2 enhance baseline = recorded beside KCNQ2 enhance, whose call it bears; B-score; compound at 10 µM; measured here: initial fluorescence intensity artifact check;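 brightness before thallium and not channel activity; 0 = typical well and far values either way flag optical interference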
The depositor's hits bear a star. An excerpt (hit frequency here may not be typical).

SMILES | KCNQ2 enhance | KCNQ2 enhance baseline
N#Cc1c(OCC(=O)c2ccccc2)nc2c(c1-c1ccco1)CCc1ccccc1-2 | 20* | 0.54*
CCN(CC)Cc1c(O)ccc2occ(C(=O)c3ccccc3)c12 | 1.6 | -0.14
CC(C)Oc1cc(N)c(Cl)cc1Cl | 2.4 | -2.3
O=C(NCc1nc(-c2ccc(C(F)(F)F)cc2)no1)Nc1ccc(OC(F)(F)F)cc1 | 0.01 | 0
CCc1ccc(C(=O)CSc2nnc(C)c(=O)[nH]2)cc1 | 2 | -0.53
Cc1ccccc1-n1ncc2c(SCC(=O)NCc3cccs3)ncnc21 | 1.1 | 0.94
N#CC1=C(N)OC2=C(C(=O)CCC2)C1c1ccoc1 (configuration not stated) | 1.4 | -3
CCOc1ccc2[nH]c3nc(SCC(=O)NCC4CCCO4)nnc3c2c1 (configuration not stated) | 0.23 | 0.71
COC(=O)c1ccc2[nH]c(C(C)(C)O)c(C)c2c1 | 2.1 | 0.45
C#CCOCCOCCOCCNc1nc(N2CCN(C(=O)C([C@@H](C)CC)n3cc(C(N)COC(=O)C(F)(F)F)nn3)CC2)nc(N2CCN(C(=O)[C@H](Cc3ccc(O)cc3)n3cc(C(N)[C@H](C)CC)nn3)CC2)n1 (some centres not stated) | 0.87 | 0.78
Cc1ccc(C(=O)Nc2nnc(-c3cccs3)s2)cc1C | 1.1 | -1
CCN(CC)CCn1c(C)nc2c(sc3nc4c(cc32)COC(C)(C)C4)c1=O | 1.6 | -0.16
Cc1ccc(S(=O)(=O)/N=S(/c2ccccc2)C(C)C)cc1 (configuration not stated) | 0.01 | 1.5
O=C(CN1CC(=O)Oc2ccccc21)OCC(=O)c1ccc(Br)cc1 | 0.09 | -1
COc1ccc(C(=O)N/C(=C\c2cccc3ccccc23)C(=O)NCCc2c[nH]c3ccccc23)cc1OC | 1 | -2.1
CN1CCN(C(=O)C2=C[C@H](c3csc4ccccc34)C[C@H](OCCCCO)O2)CC1 | 0.61 | -0.02
C1=C(C(c2nnnn2C2CCCCC2)N2CCCCC2)COc2ccccc21 (configuration not stated) | 0.04 | 0.03
Cc1ccc(Nc2nnc(SCC(=O)Nc3cccc(S(=O)(=O)NC4=NCCCCC4)c3)s2)cc1 | 1.5 | 0.03
CCCCOc1ccc(NC(=O)CCSc2nccn2C)cc1 | 1.5 | -0.58
Nc1ccn(Cc2ccccc2)n1 | 0.86 | -1.1
Cn1cc(C(=O)NCc2ccc(F)cc2)c(=O)c2cc(S(=O)(=O)N3CCCCC3)ccc21 | 0.2 | -0.02
C(=N\NC1=Nc2cccc3cccc1c23)/c1ccccn1 | 4.5 | -2.6
COc1ccc(/C(C)=N/NC(=O)Cc2c(C)nc(C)[nH]c2=O)cc1 | 0.64 | -0.01
COC(CNC(=O)c1c[nH]c2ccc(S(=O)(=O)N3CCC4(CC3)OCCO4)cc2c1=O)OC | 0.36 | 0.25
Cc1ccc(-c2nc3ccccc3o2)cc1NC(=S)NC(=O)c1cc2ccccc2o1 | 3.3 | 0.11
CCCOC(=O)Nc1nnc(CCC)s1 | 0.2 | -0.06
C=CC(C)(C)c1cc2cc3ccoc3cc2oc1=O | 1.9 | -0.09
Cc1nc(N2CCN(c3ccccc3)CC2)[nH]c(=O)c1Cc1cccc2ccccc12 | 0.06 | -1.1
COc1ccc(/C=C/CN2CCN(Cc3ccc(C)cc3)C(CCO)C2)cc1 (configuration not stated) | 0.02 | 0.12
COc1ccc(CNc2ncc(-c3ccc(Cl)cc3)n2C)c(OC)c1OC | 0.6 | 1.4
O=S(=O)(Cc1ccccc1)N1CCc2ccccc2C1 | 1.2 | -0.21
COC(=O)CC(=O)CSc1nc2c(cc1C#N)CCCCC2 | 1.5 | -0.01
CCOc1ccc2oc(C(=O)NC3CCN(Cc4ccccc4)CC3)c(C)c2c1 | 0.55 | 0.74
COc1ccc(CCNS(=O)(=O)c2ccc(Cl)cc2)cc1OC | 1.1 | -0.8
COc1cccc(/C=C2\SC(=S)N(C(C)C(=O)NC3C=CS(=O)(=O)C3)C2=O)c1 (configuration not stated) | 1.7 | 0.85
Cc1ccc(CNC(=O)c2cc3ccccc3oc2=O)cc1 | 0.41 | 0.52
Cc1cc(C)nc(NS(=O)(=O)c2ccc(NC(=O)CSc3ncn[nH]3)cc2)n1 | 0.74 | 0.8
Cc1ccccc1OCC(O)CN1CCN(CC(O)COc2ccccc2C)C(C)C1 (configuration not stated) | 0.12 | -0.02
COc1ccc2nc(C)cc(Nc3ccc(N4CCOCC4)cc3)c2c1 | 1.9 | 0.14
Cc1cccc(NC(=O)Nc2cc(C)on2)c1 | 0.87 | -0.26

Record cards, as listed above. Order of screens: KCNQ2 enhance	KCNQ2 enhance baseline
N#CC1=C(N)OC2=C(C(=O)CCC2)C1c1ccoc1 (configuration not stated) in the list: 1.4	-3
CCN(CC)Cc1c(O)ccc2occ(C(=O)c3ccccc3)c12 in the list: 1.6	-0.14

7 entries already listed, sorted by the value under KCNQ2 enhance, smallest number first.
SMILES | KCNQ2 enhance | KCNQ2 enhance baseline
COc1ccc(/C=C/CN2CCN(Cc3ccc(C)cc3)C(CCO)C2)cc1 (configuration not stated) | 0.02 | 0.12
Cc1ccccc1OCC(O)CN1CCN(CC(O)COc2ccccc2C)C(C)C1 (configuration not stated) | 0.12 | -0.02
COc1ccc(CCNS(=O)(=O)c2ccc(Cl)cc2)cc1OC | 1.1 | -0.8
O=S(=O)(Cc1ccccc1)N1CCc2ccccc2C1 | 1.2 | -0.21
COC(=O)CC(=O)CSc1nc2c(cc1C#N)CCCCC2 | 1.5 | -0.01
COc1ccc2nc(C)cc(Nc3ccc(N4CCOCC4)cc3)c2c1 | 1.9 | 0.14
Cc1ccc(-c2nc3ccccc3o2)cc1NC(=S)NC(=O)c1cc2ccccc2o1 | 3.3 | 0.11

(listing goes on)
SMILES | KCNQ2 enhance | KCNQ2 enhance baseline
O=[N+]([O-])c1nn(-c2ccc(Cl)cc2)n(O)c1=NCc1cccnc1 | 0.07 | 0.08
Oc1ccc(Br)cc1Cn1nnc2ccccc21 | 0.23 | 0
CSCCC(NS(=O)(=O)c1ccccc1F)C(=O)NCc1ccncc1 (configuration not stated) | 0.9 | -0.57
CC(=O)N1c2ccc(S(=O)(=O)NCCC(=O)Nc3ccc(C)c(Cl)c3)cc2CC1C (configuration not stated) | 0.1 | -1.8
O=C(Nc1cccnc1)C1CCCN(S(=O)(=O)c2cccc3nsnc23)C1 (configuration not stated) | 0.22 | -0.04
CN(C)/C=N/c1c(C#N)cnn1-c1nc2ccccc2s1 | 0.69 | 0.79
CC(=O)O[C@H]1CC[C@@]2(C)C(=CC[C@H]3[C@@H]4CC[C@H](C5(C)OCCO5)[C@@]4(C)CC[C@@H]32)C1 | 0.55 | 0
O=C(Nc1ccc(Oc2cccnc2)cc1)C1CCN(Cc2ccccc2F)CC1 | 0.31 | -0.6
CCN(CC)CCCn1c(=S)[nH]c2ncccc2c1=O | 1.4 | 1.2
CC(C)(C)CC(C)(C)NC(=S)Nc1ccc(S(=O)(=O)N2CCOCC2)cc1 | 2.7 | -0.38
CCOC(=O)C1CCCN(CCC(=O)Nc2ccc(C)cc2)C1 (configuration not stated) | 0.68 | -0.01
CCOc1ccc(OCC)c(N=c2oc3c(C)ncc(CO)c3cc2C(N)=O)c1 | 0.02 | 1.3
Cc1nn(C(C)C(=O)N2CCN(c3ccccn3)CC2)c(=O)c2cc3occc3n12 (configuration not stated) | 1 | 0.56
COc1ccc(CC(=O)NNS(=O)(=O)c2ccc3ccccc3c2)cc1OC | 0.08 | 0.29
CC(C)C[C@H](NC(=O)c1nc[nH]c1C(=O)NC1CCN(C(=O)OC(C)(C)C)CC1)C(=O)OCc1ccccc1 | 0.44 | 0.93
CN(CC(=O)Nc1ccc(Cl)c(C(F)(F)F)c1)C(=O)CCN1C(=O)C2CCCCC2C1=O (configuration not stated) | 1.3 | -0.56
CCCCc1nc2cc(C(=O)NCc3ccccn3)ccc2o1 | 0.9 | -0.86
Cc1ccc(Cl)cc1NC(=S)N(CCN(C)C)C(C)c1ccccn1 (configuration not stated) | 0.1 | -0.46
CCCNC(=O)c1nn2c(C(F)(F)F)cc(-c3ccccc3)nc2c1Cl | 0.13 | -0.98
O=C(O)C1CC(=O)N(c2ccc3c(c2)OCCO3)C1 (configuration not stated) | 0.29 | 0.31
Cc1cccc2sc(NC(=O)C3CCCO3)nc12 (configuration not stated) | 0.72 | -1.4
COC(=O)c1ccccc1NC(=O)c1ccccc1N(C)S(C)(=O)=O | 1.2 | 0.81
COCCn1c(SCC(=O)Nc2ccc(N3CCOCC3)cc2)nc2ccccc21 | 0.99 | -0.29
Cn1nc(C(F)(F)F)c2cc(C(=O)Nc3ccc(F)c(Cl)c3)sc21 | 0.14 | -0.73
CCOc1ccccc1CNC(=O)CCN1C(=O)COc2ccccc21 | 0.9 | -0.64
N#Cc1cc(C(=O)c2cc(Cl)ccc2O)cn(CC2CCCO2)c1=O (configuration not stated) | 0.05 | 0.01
Cn1cc(CN2CCCC(C(=O)Nc3cccc(-n4cccn4)c3)C2)cn1 (configuration not stated) | 1.3 | 1.1
Nc1nccnc1C(=O)OCC(=O)Nc1ccc2[nH]c(=O)[nH]c2c1 | 0.11 | 0.64
CC1C(=O)Nc2ccc(S(=O)(=O)NCCc3ccc(Cl)cc3)cc2NC1=O (configuration not stated) | 0.28 | 0.34
CC1(C)CC(=O)C(C2(O)C(=O)N(Cc3ccccc3)c3ccccc32)CO1 (configuration not stated) | 0.12 | 0.02
CCc1cc(CC)c(/C=N/NC(N)=O)c(CC)c1 | 2.9 | -0.04
COc1ccc(NC(=O)c2[nH]c(C)c(C(C)=O)c2C)cc1S(=O)(=O)Nc1ccc(Br)cc1 | 1.2 | 0.91
CCN(CC)C(=O)C(Oc1ccc(S(=O)(=O)N2CCCC2)cc1[N+](=O)[O-])c1ccccc1 (configuration not stated) | 0.15 | 0.7
Cc1ncsc1C(=O)Nc1nc2c(s1)CCCC2 | 0.32 | 1.4
CCCN1CCN(C(=O)c2ccc(CS(=O)c3ccc(F)cc3)o2)CC1 (configuration not stated) | 0.39 | 0.05
CCOc1ccc(CN2CCN(Cc3cc4ccccc4[nH]3)CC2CCO)cc1 (configuration not stated) | 2.2 | 3.2
Cc1nc2ccccc2n1CC(=O)OCC(=O)NC1CC1 | 0.48 | -0.21
O=C(OCCN1C(=O)c2ccccc2C1=O)c1ccco1 | 0.65 | -2
O=C(CN1C(=O)NC2(CCCC2)C1=O)N1CCN(c2ccccc2Cl)CC1 | 2.1 | 0.58
CC(C)Cc1nnc(NC(=O)CCC(=O)NC2CCCc3ccccc32)s1 (configuration not stated) | 0.04 | 1.2
COC(=O)c1scc(S(=O)(=O)C(C)C)c1N/N=C(\C#N)C(=O)c1ccc(Cl)cc1 | 0.56 | -1.1
Nc1ncc(S(=O)(=O)c2ccc(Cl)cc2)c(N)n1 | 0.88 | 1.3
O=C(NCCS(=O)(=O)c1ccc(Br)cc1)c1ccccc1Cl | 0.27 | -1.7
N#CC1C(C#N)N2CCCN2C1c1ccc(Br)cc1 (configuration not stated) | 0.82 | -0.82
CCOC(=O)C1CCCN(C(=O)C2CCC(CNS(=O)(=O)c3ccc(NC(C)=O)cc3)CC2)C1 (configuration not stated) | 0.35 | -0.08
CN(C)S(=O)(=O)c1cccc(CSc2cccc[n+]2[O-])c1 | 1.3 | -0.05
CCCCn1c(SCC(=O)Nc2nnc(CC)s2)nc2ccccc2c1=O | 2 | 2.6
CC1(C)Cc2ccccc2-c2n[nH]c(=S)n21 | 2 | -0.82
Cc1cc(C)cc(C(=O)OCC(=O)N2CCCC2)c1 | 1.8 | -1.6
COc1ccc(/C=c2\sc3nc(-c4ccccc4OC)nn3c2=O)c(OC)c1 | 1.8 | -0.19
CCOC(=O)c1c(-c2ccccc2)csc1NC(=O)CSc1nnnn1C | 0.6 | -0.03
COc1ccc(/C=C2\SC(=O)N(CCNC(=O)C3CSC4(C)CCC(=O)N34)C2=O)cc1 (configuration not stated) | 0.7 | 0.61
CS(=O)Cc1cc(Sc2ccccc2)nc(-c2ccncc2)n1 (configuration not stated) | 1 | 0.55
O=C(CSc1nnc(-c2ccco2)o1)Nc1cccc([N+](=O)[O-])c1 | 0.65 | -3.1
CCOC(=O)C(=O)Nc1nnc(CCc2ccccc2)s1 | 0.6 | -0.25
CCC(=O)Nc1nc2ccccc2n1Cc1ccccc1 | 1.9 | 0.49
CCOC(=O)C1=C(c2ccccc2)NC(=S)NC1C (configuration not stated) | 0.43 | 0.07
COC(=O)c1ccccc1NC(=O)Nc1ccc(Br)cn1 | 0.1 | 0
O=C(O)C1C2CCC(C2)C1C(=O)NCc1ccccn1 (configuration not stated) | 0.16 | -1.3
CCOC(=O)/C(N=Nc1c(Br)cc(Br)cc1Br)=C(\C)O | 0.65 | 0.77

Further structures follow.
SMILES | KCNQ2 enhance | KCNQ2 enhance baseline
CC1CCC2(CC1)NC(=O)N(CC(=O)N1CCN(S(=O)(=O)c3ccccc3)CC1)C2=O (configuration not stated) | 0.27 | -0.02
O=c1[nH]cnc2scc(-c3ccsc3)c12 | 2.3 | -0.26
Cc1occc1-c1nnc(SCC(=O)N(C)c2ccccc2)n1C | 1.4 | 1.2
CC1CCCC1/C(=N/O)c1ccccc1 (configuration not stated) | 0.31 | 0.19
